VACV Venus inh: inhibitors of vaccinia virus (Venus reporter). Vaccinia virus Venus reporter expression, fluorescence. Potency, µM (highest dose often 36.5 µM), for the others: at the highest dose activity change, negative = inhibition, actives largely listed as inhibitors. 330,000 tested, 0.46% active; active means well fitted inhibition curve with a large enough effect; inconclusive means small, poorly fitted or top-dose-only effect; inactive means no such curve, though single readings can be large or run the other way; tested in A549 cells; also: nearly all actives have a fitted effect of over 30% in size; inactives centre near -10
VACV mCherry inh: inhibitors of vaccinia virus infection (mCherry reporter signal). AID 720579. Potency, µM (doses to about 36.5 µM), without a hit: top-dose activity change, negative = inhibition, usual class: inhibitors. 310,000 tested, 0.63% active. Vaccinia virus mCherry reporter infection, fluorescence; about a quarter of the inactives have no number; active = well fitted inhibition curve with a large enough effect; inconclusive = small, poorly fitted or top-dose-only effect; inactive = no such curve, though single readings can be large or run the other way; tested in A549 cells; also: nearly all actives have a fitted effect of over 35% in size; inactives centre near -10
* hit, by the source's call; i = inactive; ? = inconclusive; · = no result given; & = joins results of further samples; [ ] = another dose, or the depositor's remark. % is scaled to controls: 0 for no effect and ±100 for the full control effect; potency is read from the fitted curve at half-maximal effect.

Preview, 2 compounds:
1) CCC(=O)Nc1cccc(C2=NOC3(C2)C[C@@H](C(N)=O)N(C(=O)CC(c2ccccc2)c2ccccc2)C3)c1 (stereo not given in full)
2) Cc1ccc(-n2ncc3c(NCCc4ccccc4)ncnc32)cc1C
entry no.,1,2
VACV Venus inh,-14%,-20%
VACV mCherry inh,-2%,-15%

Results (from the top)
1) CCC(=O)Nc1cccc(C2=NOC3(C2)C[C@@H](C(N)=O)N(C(=O)CC(c2ccccc2)c2ccccc2)C3)c1 (stereo not given in full)
2) Cc1ccc(-n2ncc3c(NCCc4ccccc4)ncnc32)cc1C
3) O=C(NCCNCCO)c1c(O)c2cccc3c2n(c1=O)CCC3
4) CCN(C(=O)COC(=O)c1nccnc1N)c1cccc2ccccc12
5) O=C(CSc1nnc(-c2ccccc2)c(-c2ccccc2)n1)NC1CCCC1
6) COC1CCCCC1Nc1cc(C)ccc1C (stereo not given)
entry no.,1,2,3,4,5,6
VACV Venus inh,-14%,-20%,-4%,1%,-5%,-3%
VACV mCherry inh,-2%,-15%,·,-15%,-2%,i

7) COc1ccc(-c2cn(CCO)c(CCN)n2)cc1
8) C[C@H]1CN([C@@H](C)CO)C(=O)c2cccc(NC(=O)C3CC3)c2O[C@H]1CN(C)S(=O)(=O)c1ccccc1
9) Cc1ccsc1/C=N/Nc1ccc(F)cc1F
10) Cc1cccc(Cn2c(C)nc3c(N)c(C)c(C)cc32)c1
11) OC(CNCc1ccccc1F)(c1ccc(F)cc1)c1ccc(F)cc1
12) Cc1ccc2[nH]c(C)c(/C=C/c3cc[n+](C)cc3)c2c1
entry no.,7,8,9,10,11,12
VACV Venus inh,-7%,-12%,7%,-1%,3%,227%[activator]
VACV mCherry inh,?,-3%,?,-6%,-2%,?

Three structures already listed, sorted by length of the SMILES, ascending:
6) COC1CCCCC1Nc1cc(C)ccc1C (stereo not given)
9) Cc1ccsc1/C=N/Nc1ccc(F)cc1F
7) COc1ccc(-c2cn(CCO)c(CCN)n2)cc1
entry no.,6,9,7
VACV Venus inh,-3%,7%,-7%
VACV mCherry inh,i,?,?

Complete entries as entered above. Order of screens: VACV Venus inh	VACV mCherry inh
C[C@H]1CN([C@@H](C)CO)C(=O)c2cccc(NC(=O)C3CC3)c2O[C@H]1CN(C)S(=O)(=O)c1ccccc1 in the list: -12%	-3%
COc1ccc(-c2cn(CCO)c(CCN)n2)cc1 in the list: -7%	?
Cc1cccc(Cn2c(C)nc3c(N)c(C)c(C)cc32)c1 in the list: -1%	-6%
Cc1ccc2[nH]c(C)c(/C=C/c3cc[n+](C)cc3)c2c1 in the list: 227%[activator]	?
Cc1ccsc1/C=N/Nc1ccc(F)cc1F in the list: 7%	?

Remaining list, next part:
13) COc1cc(CNc2cc(C)ccc2C)cc(OC)c1OC
14) Cc1nc(-c2cccc(F)c2)sc1CCNC(=O)c1c(F)cccc1Cl
15) CSc1nn(Cc2cccc(Cl)c2)c(N(C(C)=O)C(C)=O)c1S(=O)(=O)c1ccccc1
16) CC(=O)N/C(=C\c1ccc2c(c1)OCO2)C(=O)NC(C(=O)O)c1ccccc1 (stereo not given)
17) COC(=O)CCCN1C(=O)c2cccc3cccc(c23)C1=O
18) CC(NC(=O)/C=C/c1ccco1)c1nc2ccccc2n1Cc1ccccc1F (stereo not given)
entry no.,13,14,15,16,17,18
VACV Venus inh,-9%,-4%,?,2%,-7%,?
VACV mCherry inh,-8%,-1%,?,i,-18%,1%

19) Cn1c(=O)c2c(nc(NCc3ccco3)n2C)n(C)c1=O
20) O=C(NCc1cccc(C(F)(F)F)c1)c1csc([C@H]2C[C@H](O)[C@@H](CO)O2)n1
21) CCNC(=O)c1ccc(NS(=O)(=O)c2ccccc2)cc1
22) O=C(CSc1nc(-c2cccs2)nc2cc(=O)[nH]n12)Nc1ccc(F)cc1
23) COc1ccc(-c2nnc(-c3ccc4ccccc4c3)o2)cc1
24) CCCSc1n[nH]c(NC(C)=O)n1
entry no.,19,20,21,22,23,24
VACV Venus inh,-5%,-3%,-7%,?,-3%,-6%
VACV mCherry inh,i,-1%,-11%,?,i,-21%

25) CC(C)NC(=O)NC(=O)COC(=O)C1CCCN1C(=O)c1cccs1 (stereo not given)
26) CCS(=O)(=O)N1CCC(NC(=O)C(Cc2cc(OC)ccc2OC)NC(C)=O)CC1 (stereo not given)
27) N#CC1=C(Nc2ccccc2)SC=C(c2ccccc2)N=C1N1CCOCC1
28) Cc1nc2sccn2c(=O)c1S(=O)(=O)Nc1ccc(N2CCOCC2)c(Cl)c1
29) Cn1c(SCC(=O)NC(C)(C)C)nc(O)cc1=O
30) Cc1ccc(-c2cc([C@H]3[C@@H]4C=CCC[C@@]4(C)C(=O)N3Cc3ccccc3)ccc2F)cc1
entry no.,25,26,27,28,29,30
VACV Venus inh,-5%,-5%,-23%,-15%&-17%,-6%,-21%
VACV mCherry inh,·,i,-5%,-3%,-14%,i

31) Cc1cccc(C)c1N(CC(=O)N1CCN(C)CC1)S(C)(=O)=O
32) Oc1ccc(Oc2ncc(Cl)cc2Cl)cc1
33) O=C(CSCc1ccc(Cl)cc1Cl)Nc1c[nH]c(=O)[nH]c1=O
34) COc1ccc(C2C=C(c3ccccc3)Nc3ncnn32)cc1 (stereo not given)
35) CCOc1ccc(NC(=S)N2CCC(C(=O)c3ccc(OC)cc3)CC2)cc1
36) Cc1ccc(Nc2n[nH]c(=S)s2)cc1C
entry no.,31,32,33,34,35,36
VACV Venus inh,-10%,-10%,-5%,-26%,-24%,-1%
VACV mCherry inh,-12%,-11%,0%,-13%[1.46 µM],?,?

Reprinted at random: three entries already listed
22) O=C(CSc1nc(-c2cccs2)nc2cc(=O)[nH]n12)Nc1ccc(F)cc1
7) COc1ccc(-c2cn(CCO)c(CCN)n2)cc1
28) Cc1nc2sccn2c(=O)c1S(=O)(=O)Nc1ccc(N2CCOCC2)c(Cl)c1
entry no.,22,7,28
VACV Venus inh,?,-7%,-15%&-17%
VACV mCherry inh,?,?,-3%

New compounds follow
37) C=C1[C@@H](CCO)N(S(=O)(=O)C(C)(C)C)C[C@@H]1C
38) CCOc1ccc(Cl)cc1S(=O)(=O)N1CCC(C(=O)NC2CC2)CC1
39) Cc1noc(Cn2c(=O)c3ccccc3n(CC(=O)Nc3ccc(F)cc3F)c2=O)n1
40) C=CCCc1ccc(C#N)c(SCc2c(C(=O)OCC)c3cc(OC(C)=O)c(Br)cc3n2C)n1
41) Cc1ccc(O)c(C(=O)c2cc(C(=O)NCc3ccccc3)c(=O)n(Cc3ccccc3)c2)c1
42) COc1nc(Nc2cccc([N+](=O)[O-])c2)nc(OC)n1
entry no.,37,38,39,40,41,42
VACV Venus inh,0%,-8%,-5%,-4%,-21%,-7%
VACV mCherry inh,i,6%,-18%,i,-2%,i

43) Cc1cccc(NC(=S)Nc2cccc(C(F)(F)F)c2)n1
44) COc1ccc(N2CCN(Cc3nc4c(c(=O)[nH]c(=O)n4C)n3Cc3ccccc3F)CC2)cc1
45) O=C(Nc1ncn[nH]1)c1c(Cl)ccc(Cl)c1Cl
46) CCOc1ccc(NC(=O)c2ccc(S(=O)(=O)N(C)C)cc2)cc1
47) O=S(=O)(Nc1ccc(Br)cn1)c1cccs1
48) CC/C(=N/NC(=O)c1ccccc1O)c1c(C)[nH]n(-c2ccccc2)c1=O
entry no.,43,44,45,46,47,48
VACV Venus inh,0%,-13%,-14%,-20%,-2%,?
VACV mCherry inh,-10%,-14%,i,-25%,i,?

49) O=C(O)CCn1cc(C=C2C(=O)NC(=S)NC2=O)c(-c2cccc(Cl)c2)n1
50) O=C(Nc1ccccc1C(=O)Nc1ccncc1)c1ccc([N+](=O)[O-])cc1
51) Cc1nc(NC(=O)CN2CCCCC2)sc1C(=O)N(C)C
52) Cc1ccccc1-n1nnnc1SCc1ncc(-c2ccccc2)o1
53) COc1ccc(CCNC(=O)CSCC(=O)Nc2ccccc2)cc1OC
54) Cc1ccccc1NC(=O)Cn1c(=O)n(Cc2ccc3c(c2)OCO3)c(=O)c2oc3ccccc3c21
entry no.,49,50,51,52,53,54
VACV Venus inh,-12%,-10%,-7%,-11%,-15%,?
VACV mCherry inh,-1%,i,i,-22%,-30%,-6%

55) Cn1c(=O)c2c(nc(CN3CCc4ccccc4C3)n2Cc2ccccc2F)n(C)c1=O
56) CCCOc1ccc(Cn2c(=O)oc3ccc(C)cc32)cc1OC
57) O=C(Nc1ccccc1)N(CCCN1CCOCC1)Cc1cccs1
58) Cc1ccccc1NC(=S)NCc1ccco1
59) COc1cc2[nH]c(=O)n(Cc3ccc(C(=O)NCC4CCCO4)cc3)c(=O)c2cc1OC (stereo not given)
60) C=CCn1c(Cc2csc(N)n2)nnc1SCC(=O)Nc1ccccc1C(F)(F)F
entry no.,55,56,57,58,59,60
VACV Venus inh,5%,-10%,-13%,-1%,-1%,-4%
VACV mCherry inh,9%,-2%,-2%,-5%,-10%,-11%

61) COc1ccc(/C=C/c2ccnc3ccccc23)c(OC)c1
62) CC1C=CCC2C(=O)N(c3ccc(Cl)cc3O)C(=O)C12 (stereo not given)
63) CCOC(=O)C1(C)CCN1C(=O)c1ccc(OC)c(C(F)(F)F)c1 (stereo not given)
64) CC(C)NC(=O)Nc1cccc2c1O[C@H](CN(C)C(=O)Nc1ccc(C(F)(F)F)cc1)[C@@H](C)CN([C@H](C)CO)C2=O
65) CN(C)c1cccc(CNC(=O)c2ccc3nc([C@@H]4O[C@H](CO)[C@H](O)[C@H](O)[C@H]4O)[nH]c3c2)c1
66) Cc1ccccc1-c1nnc(SCC#N)o1
entry no.,61,62,63,64,65,66
VACV Venus inh,2%,-8%,11%,-5%,-3%,-12%
VACV mCherry inh,-29%,-13%,37%[activator],13%,-10%,-9%

67) C/C(=N\NC(N)=O)c1ccccc1Cl
68) O=C(Nc1ccccc1Cl)c1ccc2c(=O)n3c(nc2c1)CCC3
69) CC(C)=NNc1nc2c(c(=O)[nH]c(=O)n2C)n1CCCc1ccccc1
70) CN1C(=O)c2cccc3c(Cl)ccc(c23)C1=O
71) CCN(C(=O)CN1C(=O)COc2ccc(S(=O)(=O)N3CCCCCC3)cc21)c1cccc(C)c1
72) COc1nc2ccccc2c(=O)n1-c1ccc(C)cc1
entry no.,67,68,69,70,71,72
VACV Venus inh,-8%,-10%,-15%,8%,-20%,-14%
VACV mCherry inh,i,25%,-5%,-10%,-16%,-19%

73) N#CC(c1nc2ccccc2nc1N1CCCC1)S(=O)(=O)c1ccccc1 (stereo not given)
74) CN1CCN(C(c2cccc(C(F)(F)F)c2)c2nnnn2C(C)(C)C)CC1 (stereo not given)
75) COc1cccc(C(=O)COC(=O)c2ccc(NC(=O)c3ccccc3)cc2)c1
76) Cc1cc(Oc2ccccc2)nc(N)n1
77) COc1ccc(C(=O)/C=C/Nc2cc(C)on2)cc1
78) Cc1noc(C)c1-c1nc(CSc2ccc(Cl)cc2)no1
entry no.,73,74,75,76,77,78
VACV Venus inh,8%,-9%,?,-13%,-7%,-17%
VACV mCherry inh,-11%,-20%,?,i,-12%,-10%

79) CC(=O)c1ccc(NC(=O)Cn2c(=O)c3cccn3c3ccccc32)cc1
80) Cn1c(Cn2c(=O)sc3ccccc32)nnc1SCC(=O)Nc1ccccc1F
81) COC(=O)[C@]12CCCCC=C1N(Cc1ccco1)C(=O)[C@H](CC(=O)NCC1CCCCC1)C2
82) Cc1ccc(-n2cc(CN(C)Cc3nccn3C)c(-c3cccc(C)c3)n2)cc1
83) Cc1ccc([N+](=O)[O-])cc1CN1CCN(c2ncc(Cc3ccccc3)cn2)CC1
84) CCOC(=O)c1cc(C#N)c(Oc2ccccc2)nc1-c1ccccc1
entry no.,79,80,81,82,83,84
VACV Venus inh,-3%,4%,-1%,-13%,-17%,-19%
VACV mCherry inh,0%,-1%,33%[activator],-10%,-13%,·

85) CCN1CCN(CCNC(=O)c2ccc3c(c2)N(Cc2ccc(F)cc2)C(=O)/C(=C/c2ccccc2)S3)CC1
86) C=CCN1C(=O)S/C(=C\c2ccc(N3CCOCC3)cc2C)C1=O
87) CCCN1Cc2cccc(C(=O)Nc3cc(Cl)ccc3C)c2C1=O
88) Fc1ccc2[nH]c3c(N4CCc5ccccc5C4)ncnc3c2c1
89) O=C(c1ccccc1F)N1CCN(c2ncccn2)CC1
90) CCN(CC(=O)NC1CCS(=O)(=O)C1)S(=O)(=O)c1cc(Br)ccc1Br (stereo not given)
entry no.,85,86,87,88,89,90
VACV Venus inh,?,-21%,-12%,-11%[7.34 µM],0%,-14%
VACV mCherry inh,?,-21%,-17%,-19%[7.34 µM],-6%,-5%
